NPYLR7 agonist – mosquito NPYLR7 agonism. HEK293T NPYLR7/Galpha15, GCaMP6s calcium fluorescence. activation, % at 10 µM. 270,000 compounds, 0.15% hits; in the data active = activation above about 40%;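 also: 0% = vehicle and 100% = reference agonist at the receptor; some compounds past the cut are filed as inactive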
NPYLR7 agonist max-min – also measured in NPYLR7 agonist; calls as there; activation, %; measured here: Max-Min RFU normalised activation; some inactives read as strong as hits;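 span of the calcium signal over five minutes; 0% = vehicle and 100% = native peptide agonist; compound fluorescence can raise it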
An asterisk follows results filed as active; & = joins results of further samples. Not all compounds are listed; rates above refer to the full screens.

Structure | NPYLR7 agonist | NPYLR7 agonist max-min
CCCc1cncnc1-c1cc(C)ccc1OC | -4 | -4
CCc1ccccc1C(=O)N1CCC(n2c(-c3ccccc3)nc3ccc(F)cc32)CC1 | 23 | 11
Cc1ccc(N2CC(NC(=O)NCc3ccc4[nH]c(C)cc4c3)CC2=O)cc1 (stereo unspecified) | 9 | 8
CCCC(NC(=O)Cn1cnc2c(cnn2C)c1=O)c1ccccc1 (stereo unspecified) | 2 | 8
O=C1CC(C(=O)Nc2ccc(NS(=O)(=O)c3ccc4c(c3)OCCCO4)cc2)c2ccccc2N1 (stereo unspecified) | 0 | -3
Nn1cnc2c(sc3nc(-c4ccccc4)c4c(c32)CCC4)c1=O | 1 | -1
COc1ccc(N2CC34C=CC(O3)C(C(=O)N3CC=CCC3)C4C2=O)c(OC)c1 (stereo unspecified) | 0 | 13
COCCN1C[C@H]2COc3ccccc3[C@H]2N(C(=O)c2ccc(OC)cc2)CCC1=O | -7 | -4
CCn1cc2nc(OC)c(CNC(=O)CC3CCCO3)cc2c1O (stereo unspecified) | 4 | -3
Cc1ncc(CN2CCCC(C(=O)Nc3cccc(-n4cccn4)c3)C2)cn1 (stereo unspecified) | 11 | 4
CCCOC(C)C(=O)N1CCc2onc(-c3cccc4ccccc34)c2C1 (stereo unspecified) | 0 | 0
COC(=O)c1ccc2c(c1)CC(CNC(=O)c1ccccc1Br)O2 (stereo unspecified) | 11 | 23
c1cncc(COC2CCN(Cc3ccsc3)CC2)c1 | -5 | -8
CCN(CC(=O)Nc1ccc(OC)cc1)C(=O)COc1cccc2c1OC(C)(C)C2 | -3 | -3
O=C(Nc1ccccc1)c1cccnc1Oc1ccc(Cl)cc1 | -2 | -4
CCOc1cccc2sc(N(CCCn3ccnc3)C(=O)c3ccc(Cl)s3)nc12 | -9 | -16
CCN1CCN(CC(=O)N2N=C(c3ccc(OC)cc3)CC2c2ccc(Cl)cc2)CC1 (stereo unspecified) | 12 | 8
O=C(NC(C(=O)N1CCOCC1)C1CCN(C(=O)C2CC2)CC1)c1ccc(F)cc1 (stereo unspecified) | -3 | -3
CCC1CN2CCCC2CN1S(=O)(=O)N1CCOCC1C (stereo unspecified) | 2 | 1
CCCOC(=O)c1ccc(OC(=O)c2ccccc2C)c(OC)c1 | -5 | -6
CCOC(=O)C1=C(C)NC(C)=C(C(=O)OCC)C1C(=O)OCC(N)=O | 1 | -6
Fc1ccc(Oc2cc(Cl)ncn2)cc1 | -15 | -16
CN1CN=C2SC3(COC(c4cccc(Br)c4)OC3)C(=O)N2C1 (stereo unspecified) | -15 | -22
Cc1nc(C)c(Cc2ccc([N+](=O)[O-])cc2)c(N2CCN(C(=O)NC(C)(C)C)CC2)n1 | 5 | 18
CS(=O)(=O)N1CCC(c2cccc(C(=O)O)c2)CC1 | 11 | 4
Cn1cc(NS(=O)(=O)Cc2ccc(F)c(Cl)c2)cn1 | -21&-1 | -23&0
CCOC(=O)CN(C(=O)c1cc(C)oc1C)[C@H]1[C@H](OC)[C@@H]2O[C@H]1c1ccccc12 | -4 | 6
O=C(CN1C(=O)NC2(CCCC2)C1=O)OC1CCOC1=O (stereo unspecified) | -1 | -4
O=C(c1ccc(-c2cc(-c3cccc4ccccc34)[nH]n2)cc1)N1CCc2ccccc2C1 | 1 | 8
O=C(NCC(O)COc1cccc(Cl)c1Cl)C1CC1c1ccco1 (stereo unspecified) | 4 | 3
O=S(=O)(NCCCCc1ccccc1)c1ccc(S(=O)(=O)N2CCOCC2)cc1 | 14 | 6
CNC(=O)[C@@H]1[C@@H](O)C(=O)N(C)C12CCN(C(=O)c1cc(C)oc1C)CC2 | 8 | 8
COCCNC(=O)c1coc(CN(Cc2ccc(F)cc2)Cc2ccc(OC)cc2)n1 | 19 | 18
NS(=O)(=O)c1ccc(C(=O)N2CCc3ccccc3CC2)cc1F | 1&1 | 1&-2
COC(C)c1ccc(-c2cc(C(=O)O)cc(S(=O)(=O)N3CCOCC3)c2)cc1 (stereo unspecified) | -3 | -2
CCc1ccc(O)c(C(=O)N(C)Cc2ccc(Br)o2)c1 | 7 | 3
CCCCNC(=O)C1(C)CCCCN1C(=O)c1ccccc1Br (stereo unspecified) | 0 | -3
O=C(Nc1ccccn1)c1ccc(OCC(=O)N2CCCCC2)cc1 | -1 | -4
Cc1ccc(C(=O)Cn2c3ccccc3n3ncnc23)cc1 | -11 | -15
COc1cccc(CCNC2CCN(c3ccc(C(=O)NC4CCCC4)cc3)CC2)c1 | 4 | 2

Six entries from above, with two lines to a compound.
Values in the order: NPYLR7 agonist | NPYLR7 agonist max-min
- O=S(=O)(NCCCCc1ccccc1)c1ccc(S(=O)(=O)N2CCOCC2)cc1
→ 14 | 6
- CNC(=O)[C@@H]1[C@@H](O)C(=O)N(C)C12CCN(C(=O)c1cc(C)oc1C)CC2
→ 8 | 8
- COCCNC(=O)c1coc(CN(Cc2ccc(F)cc2)Cc2ccc(OC)cc2)n1
→ 19 | 18
- NS(=O)(=O)c1ccc(C(=O)N2CCc3ccccc3CC2)cc1F
→ 1&1 | 1&-2
- COC(C)c1ccc(-c2cc(C(=O)O)cc(S(=O)(=O)N3CCOCC3)c2)cc1 (stereo unspecified)
→ -3 | -2
- CCc1ccc(O)c(C(=O)N(C)Cc2ccc(Br)o2)c1
→ 7 | 3

Next section:
Structure | NPYLR7 agonist | NPYLR7 agonist max-min
COCCCN(CC(=O)N(CCc1c[nH]c2ccccc12)Cc1ccc(C(F)(F)F)cc1)C(=O)N(C)C | -5 | 3
CCOC(=O)C1=C(C)N(Cc2ccccc2)C(=O)NC1c1ccccc1[N+](=O)[O-] (stereo unspecified) | 2 | -4
CCOc1ccc2ccccc2c1C(=O)Oc1cc(C)[nH]c(=O)c1[N+](=O)[O-] | -3 | -2
COC(=O)C1CCN(S(=O)(=O)c2ccc(F)c(Cl)c2)CC1 | 2 | 22
Cc1ccc(C)c(-n2ncc(C(=O)NC3CC(C)(C)N(C)C(C)(C)C3)c2N)c1 | -1 | 3
Cc1cc(NC(=O)C2CC3CCC2C3)n(-c2ccc(C(F)(F)F)cn2)n1 (stereo unspecified) | 14 | -67
CC(C)Cn1nccc1NCc1cccc(C#N)c1 | -7 | -9
COc1ccc(NC(=O)CSc2ncnc3c2oc2ccccc23)cc1 | 6 | 1
Nc1nnnn1/N=C\c1cccc(I)c1 | -10 | -21
CCCCC(CC)COCCCNC(=O)c1cncn1-c1cccc(-c2ccc(Oc3ccccc3)cc2)c1 (stereo unspecified) | 4 | 2
CCCNC(=O)COc1coc(CN2CCc3ccccc3C2)cc1=O | 15 | 14
Cn1c(Nc2ccccc2C(F)(F)F)nc2ccccc21 | 3 | 3
Cc1nc2cc(OCc3cc(C(=O)N(C)C(C)c4ccon4)no3)ccc2s1 (stereo unspecified) | 4 | 3
Nc1c(C=C2C=C(Cl)C(=O)C(Cl)=C2)c(=O)nc2scc(-c3ccccc3)n12 | 5 | 4
Cc1cc(NC(=O)C(=O)NC(CC(C)C)CN(C)C)no1 (stereo unspecified) | 5 | 3
Cc1ccc(C(F)(F)F)cc1S(=O)(=O)Nc1ncn[nH]1 | 6 | -9
O=C1c2ccccc2NC2(CCNCC2)N1c1ccccc1 | 13 | 5
NC(=O)C1CCCCN1CC(=O)N1CCc2ccccc21 (stereo unspecified) | 8 | 6
CCCCc1nc(C(N)=O)c2[nH]c(=O)n(-c3ccc(OC)c(OC)c3)c2n1 | 11 | 4
Cc1ccc(NC(=O)Cn2nc(Nc3ccccc3)c(S(=O)(=O)c3ccccc3)c2N)c(C)c1 | -14 | -17

Structures listed so far that contain a CF3 group, in the order listed:
Structure | NPYLR7 agonist | NPYLR7 agonist max-min
COCCCN(CC(=O)N(CCc1c[nH]c2ccccc12)Cc1ccc(C(F)(F)F)cc1)C(=O)N(C)C | -5 | 3
Cc1cc(NC(=O)C2CC3CCC2C3)n(-c2ccc(C(F)(F)F)cn2)n1 (stereo unspecified) | 14 | -67
Cn1c(Nc2ccccc2C(F)(F)F)nc2ccccc21 | 3 | 3
Cc1ccc(C(F)(F)F)cc1S(=O)(=O)Nc1ncn[nH]1 | 6 | -9

(cont.)
Structure | NPYLR7 agonist | NPYLR7 agonist max-min
CCC(=O)N(Cc1cc(NC(=O)c2ccccc2Cl)ccc1N(C)C)C1CC1 | 16 | 23
COc1ccccc1C(=O)Nc1ccc(-n2nc(OCC(C)C)nc2-c2ccc(Cl)c(Cl)c2)cc1 | 21 | 28
O=C(NCCN1CCN(c2ncccn2)CC1)C1CCOC1 (stereo unspecified) | 5 | 2
CCOc1ccc(Cc2nnc(N(C)c3ccccc3)[nH]c2=O)cc1 | 10 | 5
COc1ccc(C(=O)Cn2nc(-c3ccccc3)c3sc(N4CCOCC4)nc3c2=O)cc1OC | -5 | -8
CCOc1ccccc1C(=O)NCC(=O)N(C)Cc1cccc(Cl)c1Cl | 7 | 6
O=C1CC(C2CCCC=C2N2CCOCC2)C(=O)N1 (stereo unspecified) | -5 | -8
NC(=S)COc1ccc(F)cc1 | 5 | 3
Cc1ccc(C)c(S(=O)(=O)N2CCN(C(=O)c3c(C)nn(C)c3C)CC2)c1 | 1 | 2
CC(C)C(NC(=O)C1CCCCC1)C(=O)N(C)Cc1ccc(OC(F)F)cc1 (stereo unspecified) | -1 | -1
Cc1nc(CCNC(=O)[C@H](N)CC(C)C)sc1C | -1 | -1
Cc1ccc(-n2c(C(C)N(CC(C)C)C(=O)c3ccc(Cl)cc3)nc3ccccc3c2=O)c(C)c1 (stereo unspecified) | -8 | -12
CC(C)CN(Cc1ccccn1)Cc1cccc2c1OCO2 | -5 | -4
N#CC(C=Nc1ccc(C(N)=O)cc1)c1nc(C2CC2)cs1 (stereo unspecified) | 25 | 18
COc1ccc(-c2ccc(=O)n(CCNS(=O)(=O)c3cc(C)c(C)cc3C)n2)cc1 | -2 | -2
OCCOCCN1CCCC1c1cccc(Cl)c1 (stereo unspecified) | 2 | 1
CCOC(=O)CCC(=O)N1CCN(c2nc(Cc3ccc(C)cc3)nc3c2c(C)nn3-c2ccc(F)cc2)CC1 | -15 | -2
Cc1cc(C(=O)N(C)C(C)Cc2ccccn2)c2ccc(F)cc2n1 (stereo unspecified) | 3 | 2
Cn1ccnc1CNc1ccc2c(c1)CN(C(=O)OC(C)(C)C)CC2 | 7 | 1
CCOC(=O)c1cc(C#N)c(N2CCN(CC(=O)N(C)C)CC2)nc1C(F)(F)F | 0 | -3
O=C1NC2(CCN(C(=O)c3ccc4c(c3)OCO4)CC2)Nc2ccc(Br)cc21 | 0 | 1
COc1ccc2c(C)c(C(=O)NCC3(O)CCCNCC3)oc2c1 (stereo unspecified) | 18 | 15
O=C(NCC(=O)N1CCC(C(=O)N2CCCCC2)CC1)Nc1cccc(Cl)c1Cl | 26 | 21
N#CC(c1ccccc1)c1ccc(NC(=O)CN2CCC3(CC2)CC(=O)c2cc(Br)cc(Br)c2O3)cc1Cl (stereo unspecified) | -8 | -14
CCc1[nH]n(-c2ccccc2)c(=O)c1C1=C(c2c(C)[nH]c3ccccc23)C(=O)N(c2ccccc2)C1=O | -8 | -3
CC(C)c1ccc(/C=C2/NC(=S)NC2=O)cc1 | 4 | 16
O=C(Nc1cccc2[nH]c([C@@H]3O[C@H](CO)[C@@H](O)[C@H](O)[C@H]3O)nc12)c1cscn1 | 14 | 16
CCN(CC)c1ccc(C2NC(=O)NC(C)=C2C(=O)OC2CCCCC2)cc1 (stereo unspecified) | -2 | -4
Cc1nn(C)c(Cl)c1S(=O)(=O)NC1CC1c1cccc(F)c1 (stereo unspecified) | -6 | -6
CSc1ccc(C(=O)CCC(=O)NCc2cccc(Cl)c2)cc1 | -5 | -13
CCN(Cc1ccc2c(c1)OCO2)C(=O)CCc1nc2sc3c(c2c(=O)[nH]1)CCCC3 | 3 | 1
CCCCC(CC)CNC(=O)c1cccnc1Nc1cccc(C)c1C (stereo unspecified) | -3 | -9
COCCCN(Cc1ccco1)CC(O)c1ccccc1 (stereo unspecified) | 9 | 19
COc1cc(COC2CN(C(=O)c3cc4ccccc4o3)CC(=O)N(C(C)C)C2)cc(OC)c1 (stereo unspecified) | 0 | -3
COc1ccc(-c2nc(CSc3cc(C)cc(C)c3)cs2)cc1OC | 5 | 6
O=C1OC(c2cccc(Cl)c2)=N/C1=C\C=C\c1ccccc1 | 1 | -2
CC(C)CN(Cc1c(-c2ccccc2)noc1N1CCSCC1)C(=O)c1ccco1 | 11 | 15
Cc1cc(F)ccc1Oc1cc(N2CCN(C(=O)c3ccccc3Cl)C(C)C2)ncn1 (stereo unspecified) | -2 | 6
CCCN(Cc1ccc(C)cc1)C(=O)C(C)NC(=O)C(C)(C)C (stereo unspecified) | 5 | 2
CC(=O)c1ccc(N=Cc2nc(-c3ccc(Br)cc3)oc2O)cc1 | 20 | 9
Cc1nn(C)cc1S(=O)(=O)NCCCN(C)C | 0 | 0
CC(C)(O)C#Cc1cccc(C(=O)NCc2ccccc2-n2ccnc2)c1 | -4 | -3
O=C(CCc1ccc(F)c(F)c1)NCc1ccccn1 | 0 | -3
Cc1cccc(COCC2CN(C(=O)c3cc(C)nc(Cl)c3)CCO2)c1 (stereo unspecified) | 23 | 22
CC1CCc2sc(-c3nnc(SCC4CCOCO4)o3)cc2C1 (stereo unspecified) | 1 | 6
CNC(=O)Cc1ccc(NCC(=O)Nc2ccccc2)cc1 | 8 | 8
COCCNS(=O)(=O)c1ccc(OC)c(N2CCN(C(=O)c3cc(F)cc(C(F)(F)F)c3)CC2)c1 | 5 | 4
COc1cc(C(=O)N2CCC(c3nc(-c4ccc(C(F)(F)F)cc4)no3)CC2)cc(OC)c1OC | 2 | -5
CN(CCCN1c2ccccc2CCc2ccccc21)S(=O)(=O)c1ccccc1Cl | -4 | -9
O=C(COc1ccc(Cl)cc1)N1CCc2ccccc2C1c1ccccc1Cl (stereo unspecified) | 10 | 7

The results go on.
Structure | NPYLR7 agonist | NPYLR7 agonist max-min
c1cnc(Oc2ccc(C3NCCc4[nH]cnc43)cc2)nc1 (stereo unspecified) | 1 | -4
COc1ccc(CNC(=O)C2CC=CCC2C(=O)N2CCc3ccccc3C2)c(OC)c1 (stereo unspecified) | -3 | -6
CCOc1ccc(OCC(=O)OCc2cc(-c3ccc4c(c3)OCO4)on2)cc1 | -2 | -3
FC(F)(F)Oc1ccc(CNc2nccnc2-c2ccccc2)cc1 | -1 | -7

Compound activity: PubChem, Fisher Drug Discovery Resource Center
